Bst PK mod – pyruvate kinase (B. stearothermophilus) modulation | partly purified Bacillus stearothermophilus pyruvate kinase, luminescence ATP production; ribose 5-phosphate activator present at AC10 | Potency, µM | 51,000 tested, 1.2% active | AID 361; in the data active means potency below about 11 µM; inconclusive means mostly about 12 µM to 25 µM; inactive means weaker than that;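 the screen sought inhibitors and activators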;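 further: potency means the concentration at half of the fitted maximal effect; scaled between full activation by ribose 5 phosphate and full inhibition by luteolin; about four in five hits inhibit and the cells do not say which; series up to 57 µM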
TsaE inh – displaces an ADP probe from E. coli YjeE (TsaE); P0AF67; purified YjeE, fluorescence polarisation of a bound ADP probe; Potency, µM; 71,000 tested, 0.05% active; active = well fitted falling curve; inconclusive = weaker or top-dose-only fall, or a rising curve; inactive = flat or poorly fitted curve;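 further: top concentration of the series not given in the record; excess ADP was the control for the full effect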
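Fluorescence polarization of a BODIPY Texas Red–ADP probe (2 uM) bound to purified YjeE (10 uM) was read after 15 min room-temperature incubation with compounds. Loss of polarization marks inhibitors; ADP serves as titrated control.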
* = called active by the depositor; i = inactive; ? = inconclusive; nt = not tested or not shown. A portion of the library; the hit share may differ from the screen's.

SMILES	Bst PK mod	TsaE inh
N#CC1=C(N)SC(N)=C(C#N)C1c1cccc(Oc2ccccc2)c1	nt	i
N#CC1=C(N)C(C#N)(C#N)C(c2cccnc2)C2COCC=C12 (stereo not drawn)	>57	i
CCCCNC(=O)c1cc(-c2ccc(OC)c(OC)c2)on1	nt	i
Cc1ccc(N2CC(C(=O)NC3=NCCS3)CC2=O)cc1 (stereo not drawn)	>57	i
CSCC[C@H](NC(=O)NCCC1=CCCCC1)C(=O)O	>57	i
Cn1c(NC(=O)c2ccccc2C(F)(F)F)cc(=O)n(C)c1=O	nt	i
Cc1ccccc1COc1ccc(/C(O)=C2/C(=O)C(=O)N(CCCn3ccnc3)C2c2ccco2)cc1 (stereo not drawn)	>11	nt
Cc1noc(C)c1C(=O)Nc1sc(C)c(-c2ccccc2)c1C#N	>57	i
CCOC(=O)N1CCC(O)(c2cc(C)c(C)cc2C)CC1	>57	i
CCc1nnc(NC(=O)CN2CCC(O)(c3ccccc3OC)CC2)s1	>57	i
COc1ccc(-n2c(Cc3cccs3)nnc2SCC(=O)Nc2ccc3c(c2)OCCO3)cc1	>57	i
CCN(CCO)Cc1cn[nH]c1-c1ccc(C)c(C)c1	>57	i

Overlap with the part before: 5 compounds, then new ones.
SMILES	Bst PK mod	TsaE inh
Cc1noc(C)c1C(=O)Nc1sc(C)c(-c2ccccc2)c1C#N	>57	i
CCOC(=O)N1CCC(O)(c2cc(C)c(C)cc2C)CC1	>57	i
CCc1nnc(NC(=O)CN2CCC(O)(c3ccccc3OC)CC2)s1	>57	i
COc1ccc(-n2c(Cc3cccs3)nnc2SCC(=O)Nc2ccc3c(c2)OCCO3)cc1	>57	i
CCN(CCO)Cc1cn[nH]c1-c1ccc(C)c(C)c1	>57	i
CCCCNC(=O)CCCn1c(=S)[nH]c2cc3c(cc2c1=O)OCO3	>57	i
O=C(Nc1c(F)cc(F)cc1Br)c1cc2nc(C(F)F)cc(C(F)F)n2n1	>57	i
COc1ccc(C(=O)COC(=O)CCCn2c(=O)oc3ccccc32)cc1	>57	i
Cc1nc(Nc2nc(-c3ccccc3)cc(=O)[nH]2)nc2ccccc12	5.1*	i
O=C(Cn1c(-c2ccco2)nc2ccccc21)N1CCCCC1	>57	i
COc1ccccc1NC(=O)c1ccc(NS(=O)(=O)c2c(C)noc2C)cc1	>57	i
Cc1ccc2c(CC(=O)Nc3ccc(N4CCN(C)CC4)cc3C)coc2c1	i	i
Cc1cc(Nc2cccc(Cl)c2)n2ncnc2n1	nt	i
CC1CCCN(C(c2ccccc2)c2sc3ncnn3c2O)C1 (stereo not drawn)	nt	i
Cc1ccc(CS(=O)(=O)CCC(=O)NCc2ccc3c(c2)OCO3)cc1	>57	i
COc1ccc2cc(CN(Cc3ccco3)C(c3nnnn3C3CCCCC3)C(C)C)c(=O)[nH]c2c1 (stereo not drawn)	>57	i
COc1ccc(C(=O)N2CCN(S(=O)(=O)N3CCOCC3)CC2)cc1OC	>57	i
CN(Cc1ccccc1)S(=O)(=O)c1ccc2[nH]cc(C(=O)NCC3CCCO3)c(=O)c2c1 (stereo not drawn)	>57	i
Oc1ccc(Cl)cc1/C=N/c1nccs1	nt	i
CC(=O)Nc1ccc(S(=O)(=O)Nc2nc3ccccc3nc2N2CCCC2)cc1	>57	i
COc1cc(OC)cc(C(=O)NCC(=O)OC2CCOC2=O)c1 (stereo not drawn)	>57	i
CNC(=O)NCC12CC3CC(CC(C3)C1)C2	>57	i
O=C(O)CNC(=O)c1ccccc1NC(=O)c1ccco1	>57	i
Cc1cc(C(=O)O)c(=O)[nH]c1C	>57	i
O=C(c1csnn1)N1CCC2(CC1)CN(c1ccncc1)C2	nt	i
Cn1c(SCc2ccc(C#N)cc2)nnc1-c1cccc(Cl)c1	>57	i
Cc1cc(NC(=O)CSc2nnc(Cc3ccccc3)o2)no1	>57	i
COC(=O)c1c(NC(=O)CSc2nnnn2-c2ccccc2)sc2c1CCCC2	>57	i
COc1ccc(NC(=O)N(CCO)Cc2cc3c(C)cc(C)cc3[nH]c2=O)cc1	>57	i

Entries listed so far printed as active in Bst PK mod:
SMILES	Bst PK mod	TsaE inh
Cc1nc(Nc2nc(-c3ccccc3)cc(=O)[nH]2)nc2ccccc12	5.1*	i

The list goes on:
SMILES	Bst PK mod	TsaE inh
CSc1nc2ccc(NS(=O)(=O)c3ccc(Cl)s3)cc2s1	>57	i
Cc1nc2cnc(Nc3ccccc3)nc2n(CCc2ccccc2)c1=O	nt	i
COCCN(CCOC)C(=O)c1c[nH]c2ccc(S(=O)(=O)N(C)c3ccc(F)cc3)cc2c1=O	>57	i
COCCNC(=O)CN(c1ccc(C)cc1)S(=O)(=O)c1ccc(SC)cc1	nt	i
FC(F)(F)c1cccc(N2CCc3cn[nH]c32)c1	i	nt
COc1ccc(OCC(=O)Nc2ccc(N3CCOCC3)cc2)cc1	nt	i
NC(=O)N1c2ccccc2CC(=O)c2ccccc21	>57	i
O=C1CC(N2CCN(c3ccc(Cl)c(Cl)c3)CC2)C(=O)N1 (stereo not drawn)	>57	i
CC(=NC1CCCCC1)c1ccccc1O	nt	i
O=C(O)[C@@H]1CCCN1Cc1c[nH]c2ccccc12	nt	i
O=C(c1cnccn1)N1CCC2(CC1)CCN(C(c1ccccc1)c1ccccc1)CC2	nt	i
C=C1CC[C@H]2C(C)(C)[C@H](O)CC[C@]2(C)[C@@H]1COc1ccc2ccc(=O)oc2c1	nt	i
Cc1cccc(NS(=O)(=O)c2cc(C(=O)OCC(=O)Nc3cc(C)on3)ccc2C)c1	>57	i
O=C(CCn1c(=O)oc2ccccc21)N1CCc2ccccc21	>57	i
Cc1cc(C)cc(N2C(=O)CC(n3ccnc3)C2=O)c1 (stereo not drawn)	>57	i
O=C(O)CC1SC(=Nc2cccc(C(F)(F)F)c2)NC1=O (stereo not drawn)	>26	nt
CCCCCC1CC(CC(=O)O)C(=O)O1 (stereo not drawn)	>57	i
CC(=O)C1=C(C)OC(N)=C(C#N)C1c1ccncc1 (stereo not drawn)	>57	i
Cc1c(C(=O)OCC(=O)N2CC(C)OC(C)C2)oc2ccc(Br)cc12 (stereo not drawn)	nt	i
N#CC1=C(N)N(c2ccccc2)C2=C(C(=O)CCC2)C1c1ccsc1 (stereo not drawn)	>57	i
COC(=O)c1nonc1NCn1nnc2ccccc21	>57	i
CCOc1ccc(C2C(C(=O)c3ccco3)=C(O)C(=O)N2Cc2cccnc2)cc1 (stereo not drawn)	>57	i
CCCCCCC(=O)c1c(C)[nH]c(C(=O)OCC)c1C	nt	i
C=CCc1c(C)nc(SC)nc1Nc1ccc(C(C)=O)cc1	nt	i
CCOC(=O)CSc1nnc(CNc2nc(-c3ccccc3)cs2)n1C	>57	i
COc1cccc(C(=O)Nc2cc(NC(=O)c3ccco3)ccc2OC)c1	>57	i
COC(=O)c1ccccc1NC(=O)CC#N	>57	i
N#Cc1cccc(NC(=O)N2CC[C@@]3(CCCN(C(=O)c4cnccn4)C3)C2)c1	nt	i
Cc1oc(-c2ccc(Cl)cc2)nc1CN1CCCC(C(=O)NCCCN2CCCC2=O)C1 (stereo not drawn)	nt	i
CCCCOc1ccc(NC2=NC3(CCCCC3)N=C(N)N2)cc1	>57	i
COc1cccc(C(=O)Nc2ccc(NC(=O)C3CC3)cn2)c1	nt	i
COCCNC(=O)CSc1nc2cc(OC)c(OC)cc2c(=O)n1Cc1ccc(OC)cc1	>57	i
O=C(Cc1nc2ccccc2s1)c1ccc(O)cc1O	nt	i
c1ccc2c(c1)nc(CN1CCOCC1)n1c3ccccc3nc21	>26	nt
CC(=O)Nc1cccc(NC(=O)c2c(-c3ccccc3Cl)noc2C)c1	nt	i
Cc1cc2cc(C)c3nnc(SCC(=O)NCc4ccco4)n3c2cc1C	?	i

Looked up one by one from the entries so far (3):
SMILES	Bst PK mod	TsaE inh
N#Cc1cccc(NC(=O)N2CC[C@@]3(CCCN(C(=O)c4cnccn4)C3)C2)c1	nt	i
Cc1cc2cc(C)c3nnc(SCC(=O)NCc4ccco4)n3c2cc1C	?	i
COCCNC(=O)CSc1nc2cc(OC)c(OC)cc2c(=O)n1Cc1ccc(OC)cc1	>57	i

Later entries.
SMILES	Bst PK mod	TsaE inh
Cc1cc2cc(CNC(=O)c3cccs3)ccc2n1C	>57	i
COc1ccc(NC(=O)CN2CCC(C(N)=O)CC2)cc1	>57	i
O=C(Cc1cn2ccsc2n1)Nc1cccc2cnccc12	>57	i
COc1ccc(OC)c(NC(=O)CSc2nc3ccccc3c(=O)n2CCNC(C)=O)c1	>57	i
O=C(Nc1cccc(F)c1)c1ccc2c(c1)OCO2	nt	i
c1ccc(-c2nnc(CSc3nc4ccccc4[nH]3)o2)cc1	>57	i
COc1ccccc1CNc1nc2nc(C)cc(=O)n2[nH]1	>57	i
COc1ccc(N(C)S(=O)(=O)c2ccc3c(c2)CCC(=O)N3)cc1	>57	i
CC1=C(C(=O)Nc2ccccc2)C(c2ccc(C)o2)n2ncnc2N1 (stereo not drawn)	>57	i
CC1(C)CC[C@]2(C(=O)O)CC[C@]3(C)C(=CC[C@@H]4[C@@]5(C)CC[C@H](O)C(C)(C)[C@@H]5CC[C@@]43C)[C@@H]2C1	nt	i
CCN(c1ccccc1)S(=O)(=O)c1ccc(Oc2ccc(-n3ccnc3)cc2)nc1	>57	i
CCOC(=O)c1c(NC(=O)c2ccco2)sc2c1CCCC2	nt	i
CCOc1ccc2[nH]c(=O)c(C(c3nnnn3CCOC)N3CCOCC3)cc2c1 (stereo not drawn)	>57	i
CCOC(=O)COc1ccc(S(=O)(=O)NCc2ccco2)cc1	>57	i
CN1C(=O)C2CN(CCc3ccccc3)CNC2N(C)C1=O (stereo not drawn)	>57	i
CS(=O)(=O)N1CCN(c2nnc(-c3ccccc3)c3ccccc23)CC1	>57	i
Cc1cc(NC(=O)CSc2ccccc2)no1	>57	i
O=C(CC(=O)Nc1ccccn1)Nc1ccccn1	>57	i
CCC(=O)Nc1ccc(NC(=O)c2cc3ccccc3o2)cc1	nt	i
COc1ccccc1CC(=O)NCCc1ccc(S(N)(=O)=O)cc1	>57	i
COCCn1c(=NC(=O)CSC(C)=O)sc2cc(F)ccc21	>57	i
Cc1sc(NC(=O)CSc2nnc(-c3ccccc3)o2)c(C#N)c1C	>57	i
O=C1c2ccccc2NC(c2ccncc2)N1c1ccccn1 (stereo not drawn)	nt	i
CCOC(=O)c1c(NC(=O)c2ccco2)sc(C(=O)N2CCCC2)c1C	nt	i

Some of the entries so far, with two lines to a compound.
Fields: Bst PK mod	TsaE inh
COCCn1c(=NC(=O)CSC(C)=O)sc2cc(F)ccc21
 : >57	i
Cc1sc(NC(=O)CSc2nnc(-c3ccccc3)o2)c(C#N)c1C
 : >57	i

Next records.
SMILES	Bst PK mod	TsaE inh
COCCn1c(=O)[nH]c2cc(C(=O)NCCc3ccc(OC)c(OC)c3)ccc2c1=O	>57	i
COc1ccc2oc(C)c(C(=O)Cn3ccnc3)c2c1	>57	i
COc1ccc(OC)c(-n2cc3c(=O)n(C)c(=O)n(C)c3c2)c1	>57	i
Cc1ccc(C2C(C#N)=C(N)SC(N)=C2C#N)o1	nt	i
CCCc1cc(C(=O)Nc2ccccc2C(=O)OC)no1	nt	i
COc1cc(CNCc2ccc(OC)c(OC)c2OC)cc(OC)c1	>57	i
CC(C)OC(=O)CSc1nc2ncccc2[nH]1	>57	i
CC1(C)Cc2c(c(=S)nc(-c3ccccc3)n2CCCN2CCOCC2)CO1	>57	i
CN1CCC2(CC1)Nc1nc(SCc3ccc(Cl)cc3)nn1C1=C2CN(C)CC1	>57	i
O=C(CSc1nncs1)NCc1ccc2c(c1)OCO2	>57	i
Cc1ccccc1Cn1c(=O)c2c(nc3n2CCCN3Cc2ccccc2)n(C)c1=O	>57	i
COc1ccc(CCn2c(C)cc3c(c2=O)C(c2ccc4c(c2)OCO4)C(C#N)=C(N)O3)cc1OC (stereo not drawn)	>11	nt
COc1ncc2nc(-c3cccs3)c(=O)n(Cc3cccs3)c2n1	nt	i
CCN(CC)c1cc(C)c2cc(NC(=O)CNC(C)=O)ccc2n1	>57	i
CCOc1ccc(CNC(=O)NS(=O)(=O)c2ccc(OC)cc2)cc1	>57	i
O=C(O)C1CSC(c2ccccc2)N1C(=O)c1ccco1 (stereo not drawn)	>57	i
Cc1ccc(OCc2nnc(SCc3nc4ccccc4[nH]3)n2Cc2ccco2)cc1	>57	i
O=C1C=C(NCc2ccncc2)CC(c2ccccc2)C1 (stereo not drawn)	nt	i
CN(Cc1ccco1)c1ncncc1-c1cccc(NS(C)(=O)=O)c1	nt	i
Cc1ccc(C(C(=O)NC2CCCC2)N(Cc2cccs2)C(=O)CNC(=O)c2cccs2)o1 (stereo not drawn)	>57	i
CN1[C@@H]2CC[C@H]1CC(OC(=O)[C@@H](CO)c1ccccc1)C2 (stereo partly drawn)	nt	i
CC(=O)[C@@H]1[C@@H]2C(=O)N(Cc3ccccc3)C(=O)[C@@H]2C2c3ccccc3C=CN21 (stereo partly drawn)	>57	i
CCOC(=O)NC(Nc1cc(C)on1)(C(F)(F)F)C(F)(F)F	>26	nt
CCCn1c(C)nc2c(NCCCCN(C)C)nc(C)nc21	nt	i
COc1ccc(NC(=O)CCOc2ccccc2)c(OC)c1	>57	i
O=C(O)c1ccc(S(=O)(=O)NC2CCCc3ccccc32)cc1 (stereo not drawn)	nt	i
c1cnc(N2CC[N+]3(CCCC3)CC2)nc1	>57	i
COc1ccc(-c2nnc3ccc(SC(C(C)=O)C(C)=O)nn23)cc1OC	>57	i
O=c1[nH]c(CN2CCCCC2)nc2c1C1(CCCC1)Cc1ccccc1-2	>26	nt
Cc1ccc2[nH]c(=O)c(C(c3nnnn3CC3CCCO3)N3CCOCC3)cc2c1 (stereo not drawn)	>57	i
